# Vaccinia Venus = vaccinia inhibition (Venus reporter); Vaccinia virus Venus reporter expression, fluorescence; Potency, µM (titrated, usually from 36.5 µM), inactives show at the top dose activity change, negative = inhibition, most hits filed as inhibitors; 330,000 tested, 0.46% active; active means well fitted inhibition curve with a large enough effect; inconclusive means small, poorly fitted or top-dose-only effect; inactive means no such curve, though single readings can be large or run the other way; tested in A549 cells; also: nearly all actives have a fitted effect of over 30% in size; inactives centre near -10
# VACV mCherry inh = vaccinia inhibition (mCherry reporter); 310,000 tested, 0.63% active; Potency, µM (highest dose often 36.5 µM), without a hit: at the top dose activity change, negative = inhibition, usual class: inhibitors; Vaccinia virus mCherry reporter infection, fluorescence; about a quarter of the inactives have no number; active = well fitted inhibition curve with a large enough effect; inconclusive = small, poorly fitted or top-dose-only effect; inactive = no such curve, though single readings can be large or run the other way; tested in A549 cells; also: nearly all actives have a fitted effect of over 35% in size; inactives centre near -10
# The depositor's hits bear a star; i = inactive; u = inconclusive; x = not tested or not shown; [ ] = remark or other dose. % is scaled to controls: 0 for no effect and ±100 for the full control effect; potency is read from the fitted curve at half-maximal effect. Compounds were not picked by outcome (roughly 0.82% active in at least one column).
SMILES,Vaccinia Venus,VACV mCherry inh
CCn1c(=O)n(CC)c2cc(N3CCCC3)c(NC(=O)c3ccccc3)cc21,-12%,u
Cc1cc(Br)ccc1SCC(=O)NCC(c1ccco1)N1CCCCC1 (configuration not stated),-4%,i
O=C(Nc1cccc(S(=O)(=O)N2CCCCC2)c1)c1cc2ccccc2o1,-17%,-10%
Cc1nc(C(F)(F)F)ccc1C(=O)N1CCC1(C)C(=O)NS(=O)(=O)c1ccc2ccccc2c1 (configuration not stated),0%,15%
COC(=O)C1=C(c2cc3ccccc3o2)C[C@@H]2CC[C@H]1N2C(=O)N1CCC(C)CC1,-24%,u
CCOc1ccc(NC(=O)CCC(=O)N/N=C/c2ccc([N+](=O)[O-])s2)cc1,u,u
Cc1cccc(-n2ncc(C(=O)N3CCN(c4ccc(C)cc4C)CC3)c2C2CCN(C(=O)OC(C)(C)C)CC2)c1,-24%,-11%
CC(C)(C)OC(=O)NCCCCCNC(=O)c1[nH]cnc1C(=O)Nc1ccccc1,-30%,u
O=C(Nc1ccc2c(c1)OCCO2)C(c1ccnc2ccccc12)N1CCN(c2ccc(F)cc2)CC1 (configuration not stated),-4%,i
Cc1cccc(C)c1NC(=O)C(c1ccc(Cl)cc1Cl)N1CCCCC1 (configuration not stated),1%,5%
CN(C(=O)C1CCN(S(=O)(=O)c2ccccc2[N+](=O)[O-])CC1)C1CCCCC1,-4%,i
COc1ccc(CNC(=O)CC23CC4CC(CC(C4)C2)C3)cc1OC,-10%,-13%
CCOC(=O)Cn1nc(C)n(-c2ccc(Cl)cc2)c1=O,1%,i
COc1c(OC(C)=O)c(=O)n2c3ccccc3c3ccnc1c32,-15%,4%
CCNc1cc(N2CCN(C)CC2)ccc1[N+](=O)[O-],-11%,-15%
Cc1ccc(-c2nnc(-c3ccc4ccccc4c3)o2)cc1,-6%,0%
CS(=O)(=O)c1ccc(Nc2nc(C(N)COCc3ccccc3)cs2)cc1 (configuration not stated),-3%,1%
Cc1cccc2c1CC(C)(C)N/C2=C\C(N)=O,-17%,-24%
Cc1ccc(-c2ncccc2OC(=O)C23CC4CC(CC(C4)C2)C3)cc1,-13%,-6%
CC(=O)c1cccc(Oc2cc(NN3CCCCC3)c([N+](=O)[O-])cc2[N+](=O)[O-])c1,u,u
O=C(O)c1ccc(NS(=O)(=O)c2cc(Cl)ccc2Cl)cc1,-3%,-4%
Cc1ccc(NC(=O)COC(=O)CNC(=O)c2ccc3ccccc3c2)c([N+](=O)[O-])c1,-13%,i
COCCNC(=O)C(NC(=O)C1CCCCC1)C(C)C (configuration not stated),-5%,-1%
CSc1ccccc1NC(=O)CN(C)C(=O)c1ccc2c(c1)OCCO2,-15%,i
Cc1nn(C)c(C)c1S(=O)(=O)NC1CCCC1,-14%,x
CCOc1ccc(-c2nnc(SCC(=O)Nc3cccc(Cl)c3C)o2)cc1,u,u
COc1ccc(Nc2nc(N)nc(CSc3nc(C)cc(C)n3)n2)cc1,-27%,-28%
CCOC(=O)C(C)n1cnc2c(nnn2Cc2ccc(C)cc2)c1=O (configuration not stated),-22%,-2%
CCOc1cc(Br)ccc1S(=O)(=O)NCc1ccccc1,-10%,-17%
Cc1onc(-c2ccccc2Cl)c1C(=O)NCc1nc(-c2ccc(C(F)(F)F)cc2)no1,-20%,u
COCCOC(=O)c1c(C)nc(SCC(=O)Nc2ccc(C)cc2)c(C#N)c1-c1ccco1,-13%,i
COc1cccc([C@@H]2CC=C(C(=O)O)[C@H](c3ccccc3F)N2S(=O)(=O)c2ccc(C)cc2)c1,-18%,i
COc1ccc(OC)c(CNc2ncnc3onc(C)c23)c1,-12%,-16%
CCOc1ccc(-n2c(C)nc3cc(C(=O)NCc4ccc5c(c4)OCO5)ccc32)cc1,-4%,-6%
Cc1ccc(NC(=O)C2CCN(S(=O)(=O)c3ccc(Cl)c(C(F)(F)F)c3)CC2)nc1,-2%,-5%
O=C(NCCN1CCN(c2ccccc2)CC1)Nc1ccccc1Br,-15%,-18%
CCC(CC)N1CCN(S(=O)(=O)c2ccc(OC)cc2)CC1,-2%,-6%
Cc1ccc(NCC(=O)N/N=C/c2cccn2C)cc1,-4%[7.34 µM],-11%[7.34 µM]
COc1ccc(CC(=O)NNC(=O)CCC(=O)Nc2cc(C)ccc2C)cc1,-9%,-18%
CCCSc1nc(N2CCOCC2)c2c(c1C#N)CC(C)(C)SC2,-21%,x
CN(C(=O)COc1ccc([N+](=O)[O-])cc1)C1CCS(=O)(=O)C1 (configuration not stated),-9%,0%
COc1ccccc1CNC(=O)N1CCN(S(=O)(=O)c2ccc(Cl)cc2)CC1,-11%,i
COCCOC(=O)C1=C(N)OC(C)=C(C(=O)OC)C12C(=O)Nc1ccccc12 (configuration not stated),4%,-3%
C/C(CC(=O)Nc1ccc(Cl)c(C(F)(F)F)c1)=N\NC(N)=S,u,18µM*
CCCCc1ccc(S(=O)(=O)NC(=O)C2(C)CCN2C(=O)C/C=C/c2ccccc2)cc1 (configuration not stated),2%,13%

# Next part, starting with the last 4 of the part before.
SMILES,Vaccinia Venus,VACV mCherry inh
COc1ccccc1CNC(=O)N1CCN(S(=O)(=O)c2ccc(Cl)cc2)CC1,-11%,i
COCCOC(=O)C1=C(N)OC(C)=C(C(=O)OC)C12C(=O)Nc1ccccc12 (configuration not stated),4%,-3%
C/C(CC(=O)Nc1ccc(Cl)c(C(F)(F)F)c1)=N\NC(N)=S,u,18µM*
CCCCc1ccc(S(=O)(=O)NC(=O)C2(C)CCN2C(=O)C/C=C/c2ccccc2)cc1 (configuration not stated),2%,13%
COc1ccc(-c2sc3cc4c(cc3c2C#Cc2cncn2C)OCO4)cc1,-20%,u
COc1ccc(-c2cc3nc(C)c(CCC(=O)NCc4ccc(F)cc4)c(C)n3n2)c(OC)c1,0%,i
CCOC(=O)COc1ccc(Br)cc1/C=C\c1[nH]c(=O)[nH]c(=O)c1[N+](=O)[O-],-23%,-5%
CCOc1ccc(C(=O)COc2ccc(NC(C)=O)cc2)cc1,3%,x
O=c1[nH]c(=S)[nH]c2c1C(c1ccc(Cl)c(Cl)c1)OC(CCc1ccccc1)C2 (configuration not stated),-17%,-7%
COc1cc(C(=S)N2CCOCC2)ccc1OS(=O)(=O)c1ccccc1[N+](=O)[O-],-25%,-27%
COc1cccc(NC(=O)Cc2ccc(NC(=O)N3CCCCc4ccccc43)cc2)c1,-21%,-5%
CC(=O)Nc1nnc(SCC(=O)c2ccc(F)cc2)s1,-14%,i
Cc1cc(N2C(=O)CCC2=O)ccc1NC(=O)c1cccs1,-20%,-15%
O=C(OCC(=O)N1CCCc2ccccc21)c1cc(S(=O)(=O)N2CCOCC2)ccc1F,-7%,-13%
Cc1ccc(OCCCC(=O)Nc2sc3c(c2C(N)=O)CCC(C)C3)cc1 (configuration not stated),-3%,-9%
CN(C)c1nc(NN)nc(Nc2ccc(F)cc2)n1,-2%,-7%
Cc1sc2ncn(CC(=O)OCC(=O)NC(C)(C)C)c(=O)c2c1C,-8%,-12%
Cc1ccc(N2C(=O)c3ccccc3C2C(=O)c2ccc(C)c(C)c2O)cc1 (configuration not stated),-14%,i
C=CCn1c(SCC(=O)c2cc(C)n(C)c2C)nnc1-c1ccncc1,-6%,i

# Given field by field: 4 of the compounds above
Structure: CN(C)c1nc(NN)nc(Nc2ccc(F)cc2)n1
  Vaccinia Venus: -2%
  VACV mCherry inh: -7%

Structure: CCOc1ccc(C(=O)COc2ccc(NC(C)=O)cc2)cc1
  Vaccinia Venus: 3%
  VACV mCherry inh: x

Structure: O=c1[nH]c(=S)[nH]c2c1C(c1ccc(Cl)c(Cl)c1)OC(CCc1ccccc1)C2 (configuration not stated)
  Vaccinia Venus: -17%
  VACV mCherry inh: -7%

Structure: Cc1ccc(OCCCC(=O)Nc2sc3c(c2C(N)=O)CCC(C)C3)cc1 (configuration not stated)
  Vaccinia Venus: -3%
  VACV mCherry inh: -9%

# The listing continues.
SMILES,Vaccinia Venus,VACV mCherry inh
COc1ccc(OC)c(CNC(=O)c2cc(-c3ccc(Cl)s3)nc3ccccc23)c1,-6%[7.34 µM],-7%[7.34 µM]
CCOc1ccc(C(C)=O)cc1COC(=O)c1cccnc1SC,-11%,i
COC(=O)C1=CN(c2ccc(F)cc2)C(N)=C(C#N)C1c1cccc(F)c1 (configuration not stated),u,u
CC(C)n1cc(-c2nc(C(=O)NN)cs2)c(=O)n(Cc2ccccc2)c1=O,-14%,-23%
CC1=C(C(=O)N2CCOCC2)CC(CC(=O)NC2CC2)C(=O)N1Cc1ccccc1 (configuration not stated),-10%,i
CCOc1ccc(Cc2nnc(SCC(=O)Nc3ccc(OC)cc3)n(N)c2=O)cc1,-22%,-25%
O=C(Cn1c(=O)oc2cc(S(=O)(=O)NCc3ccccc3)ccc21)NCc1ccccc1Cl,-17%,-26%
O=C(Nc1cccc([N+](=O)[O-])c1)C1CCN(C(=O)Cc2ccccc2)CC1,-7%,i
Cc1cccc(NC(=O)CSc2nnnn2-c2ccc3c(c2)OCCO3)n1,1%,-12%
Cc1nn(C(=O)N2CCCCC2)c(C)c1CN1C(=O)c2ccccc2C1=O,-4%,-13%
CCC(C)N1C(=O)CCC1C(=O)O (configuration not stated),6%,-6%
COc1ccc(-c2nc3c(c(SCc4cc(C)ccc4C)n2)Cc2c(CO)cnc(C)c2O3)cc1,-6%,1%
CCOc1cccc2sc(N(Cc3cccnc3)C(=O)C3CCCCC3)nc12,-8%,-23%
Cn1nc(C(C)(C)C)cc1C(=O)N1CCCCC1c1cc(C(=O)N2CCOCC2)no1 (configuration not stated),5%,i
Cc1nn(C)c(C(=O)N2CCOCC2)c1Cl,-5%,i

# Complete entries, looked up by structure. Values in the order: Vaccinia Venus, VACV mCherry inh
# CCC(C)N1C(=O)CCC1C(=O)O (configuration not stated) reads 6%, -6%
# CCOc1ccc(C(C)=O)cc1COC(=O)c1cccnc1SC reads -11%, i

# The main list resumes, repeating the 3 entries before the break.
SMILES,Vaccinia Venus,VACV mCherry inh
CCOc1cccc2sc(N(Cc3cccnc3)C(=O)C3CCCCC3)nc12,-8%,-23%
Cn1nc(C(C)(C)C)cc1C(=O)N1CCCCC1c1cc(C(=O)N2CCOCC2)no1 (configuration not stated),5%,i
Cc1nn(C)c(C(=O)N2CCOCC2)c1Cl,-5%,i
Cc1ccc([C@H]2C[C@H](O)[C@@H](n3cc(COC(=O)c4ccccc4)nn3)CN2CC2CCCCC2)cc1,u,u
CC1(C)NC(=O)N(CC(O)CN(c2cccc([N+](=O)[O-])c2)S(=O)(=O)c2ccccc2)C1=O (configuration not stated),-15%,-9%
Nc1nc(SCC(=O)N2CCCC2)[nH]c(=O)c1NC(=O)c1ccco1,6%,8%
O=C(NC(=S)Nc1ccc(CN2CCOCC2)cc1)c1ccco1,-2%,i
Cc1ccc(C)c(N2CCN(S(=O)(=O)c3ccc4c(c3)CCCN4C(=O)C3CCC3)CC2)c1,-15%,-17%
CC(C)C(=O)Nc1c(O)c2ccccc2[nH]c1=O,-3%,i
COc1ccc(-c2coc3c(OC)c(OC)cc(O)c3c2=O)cc1,-17%,-3%
COc1ccc(CN2Cc3cc(N4CCOCC4)ccc3-n3nncc3C2)cc1,-12%,i
CN(c1ccc(Cl)cc1)S(=O)(=O)c1nnc(NC(=O)C2CCCCC2)s1,-11%,i
O=C(NCCCN1CCCC1=O)c1cccc(S(=O)(=O)Nc2ccc(Br)cc2)c1,-8%,-18%
O=C(O)CN1C(=O)/C(=C/c2cccc(Cl)c2)Oc2ccccc21,-8%,i
Cc1ccc(-c2nc(NCCN3CCOCC3)c3ccccc3n2)cc1,-26%,-11%
C=CCn1c(SCN2C(=O)c3ccccc3C2=O)nc2ccc(Cl)cc2c1=O,-10%,-10%

# Compound activity as filed in PubChem BioAssay.
